CtBP-E1A blk = qHTS Assay for Inhibitors of the CtBP/E1A Interaction | CtBP / adenovirus E1A interaction (AlphaScreen) | AlphaScreen GST-E1A/His-CtBP binding, 1536-well; active compounds read low; control for the full effect not named in the record | activity change, % (test concentration not listed) | 340,000 tested, 0.49% active | AID 651724, 2012; in the data active means activity change below about -65%; inconclusive means about -30% to -65%; inactive means above about -30%; further: on the % scale 0 is the no-effect control and ±100 the full control effect
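Homogeneous bead-based format: GST-tagged E1A captured on glutathione donor beads, His-tagged CtBP on nickel acceptor beads; compounds precede bead addition by 2 h at 37 °C.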
Six1-Eya2 blk = qHTS Assay for Inhibitors of the Six1/Eya2 Interaction. AlphaScreen GST-Six1/His-Eya2 binding, biochemical; active compounds read low; control for the full effect not named in the record. activity change, % (no concentration beside the values). 360,000 tested, 0.56% active; in the data active = activity change below about -65%; inconclusive = about -30% to -65%; inactive = above about -30%; further: on the % scale 0 is the no-effect control and ±100 the full control effect
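Six1/Eya2 binding was read as AlphaScreen signal after compounds were pinned into GST-Six1 plus His-tagged Eya2 (5X stock 250/500 nM) in pH 8.0 Tris/NaCl/TCEP buffer, beads added, then incubated 1 h, 37 C, dark.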
TRPML1 ag = qHTS for Agonists of the Human Mucolipin Transient Receptor Potential 1 (TRPML1) | TRPML1-expressing cells, Ca2+ dye fluorescence, FDSS; host cell line not named in the record; reference of the full effect not given here | activation, % (concentration not given with the values) | 410,000 tested, 0.12% active; in the data active = activation above about 50%; inconclusive = about 30% to 50%; inactive = below about 30%; further: 0% is about no effect; the text of the record puts the active cut at 80%
Target sequence (Q9GZU1 whole entry, looked up): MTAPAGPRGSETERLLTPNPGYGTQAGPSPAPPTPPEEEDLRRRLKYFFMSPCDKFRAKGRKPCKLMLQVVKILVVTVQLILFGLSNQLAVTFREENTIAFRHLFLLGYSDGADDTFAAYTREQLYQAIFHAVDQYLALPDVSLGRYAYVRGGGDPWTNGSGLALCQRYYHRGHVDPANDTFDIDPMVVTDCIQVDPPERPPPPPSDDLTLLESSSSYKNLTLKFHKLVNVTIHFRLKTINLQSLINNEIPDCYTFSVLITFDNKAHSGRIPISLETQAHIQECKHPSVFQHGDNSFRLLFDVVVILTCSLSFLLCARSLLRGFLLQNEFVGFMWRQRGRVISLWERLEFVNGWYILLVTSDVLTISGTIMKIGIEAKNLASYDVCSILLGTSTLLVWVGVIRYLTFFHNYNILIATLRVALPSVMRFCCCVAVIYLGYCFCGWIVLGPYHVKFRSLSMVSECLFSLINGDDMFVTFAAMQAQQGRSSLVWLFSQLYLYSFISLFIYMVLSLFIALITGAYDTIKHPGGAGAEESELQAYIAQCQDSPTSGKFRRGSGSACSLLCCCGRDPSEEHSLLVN
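Cells: TRPML1-DL, 1X Tet inducer, ~16 h at 37 degrees C/5% CO2. Dye: ABD Ca8 no-wash + quencher, 45-90 min RT. Read: 10 s baseline, compound add, 110 s agonist phase; 54-4 EC80 (4uM final), 110 s antagonist phase.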
D2 potentiator = Beta-Arrestin HTS for Positive Allosteric Modulators of the Human D2 Dopamine Receptor: Potentiators. 360,000 tested, 0.23% active. AID 624464, 2012. D(2) dopamine receptor (Homo sapiens), P14416. DiscoveRx D2 beta-arrestin cells, luminescence, 90 min; 100% = 57 uM dopamine signal. potentiation, % (test concentration not listed); active = potentiation of 50% or more; inconclusive = 30% to 50%; inactive = 30% or less;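 further: compound concentration not given in the record; tested on top of an EC20 dose of dopamine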
Target sequence (P14416 whole entry, looked up): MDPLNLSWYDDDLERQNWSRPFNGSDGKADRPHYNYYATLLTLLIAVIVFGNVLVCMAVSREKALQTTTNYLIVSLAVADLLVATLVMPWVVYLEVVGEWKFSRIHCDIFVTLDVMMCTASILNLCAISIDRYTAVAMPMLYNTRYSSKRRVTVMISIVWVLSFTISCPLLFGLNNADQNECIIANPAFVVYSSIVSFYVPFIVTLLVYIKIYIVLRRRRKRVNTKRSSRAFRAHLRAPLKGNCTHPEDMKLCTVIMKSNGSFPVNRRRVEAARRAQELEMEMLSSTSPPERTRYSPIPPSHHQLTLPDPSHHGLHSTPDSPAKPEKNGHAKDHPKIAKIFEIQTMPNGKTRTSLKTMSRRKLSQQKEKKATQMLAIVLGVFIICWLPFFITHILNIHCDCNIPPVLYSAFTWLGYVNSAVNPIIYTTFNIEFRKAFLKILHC
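PathHunter beta-arrestin assay in DiscoveRx D2 cells. Compounds were added with an EC20 of dopamine (50 nM final) for 90 min at 37 deg C. Luminescence was read 1 h after detection reagent, with 57 uM dopamine as the EC100 control.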
PINK1 modulator = A Quantitative High throughput Screen to Identify Chemical Modulators of PINK1 Expression; PINK1 immunofluorescence, high-content cytometry, 24 h; Potency, µM (doses to about 76.6 µM), without a hit: at the top dose activation (PINK1 increase), actives largely listed as activators; 410,000 tested, 0.2% active; AID 624263, 2012; active = well fitted activation curve with a large enough effect; inconclusive = small, poorly fitted or top-dose-only effect; inactive = flat fitted curve, though single readings scatter; cell line not stated here;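 further: potency means the concentration at half of the fitted maximal effect; % of control where 0% means no effect; nearly all actives have a fitted effect of over 65% in size; a mitochondrial uncoupler was the plate control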
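PINK1 protein, normally rapidly degraded, was detected by immunofluorescence after 24 hour compound treatment of a stable cell line. Titration data (5 concentrations) came from laser-scanning cytometry, with CCCP-treated wells as controls.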
D2 agonist = Beta-Arrestin HTS for Positive Allosteric Modulators of the Human D2 Dopamine Receptor: Agonists; D(2) dopamine receptor (Homo sapiens), P14416; DiscoveRx PathHunter D2 beta-arrestin, luminescence, 90 min; 100% = 57 uM dopamine signal; activation, % (no concentration beside the values); 360,000 tested, 0.084% active; in the data active = activation above about 40%; inconclusive = about 15% to 40%; inactive = below about 15%; further: compound concentration not given in the record; the text of the record calls up to 30% inactive
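Agonist mode: compounds alone added to overnight-plated D2 PathHunter cells for 90 min at 37 C, with 57 uM final dopamine (EC100) defining full response. Beta-arrestin recruitment detected by chemiluminescent reagent, read after 1 h at ambient temperature.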
* = called active by the depositor; u = inconclusive; x = not tested or not shown; & = joins results of further samples; [ ] = another dose, or the depositor's remark. No enrichment for hits, and some 1.3% of all compounds hit somewhere here.

cpd	SMILES	CtBP-E1A blk	Six1-Eya2 blk	TRPML1 ag	D2 potentiator	PINK1 modulator	D2 agonist
1	CC1(C)CC[C@]2(C(=O)O[C@@H]3OC(CO)[C@@H](O)[C@H](O)[C@H]3O)CC[C@]3(C)C(=CCC4[C@@]5(C)CC[C@H](O[C@@H]6OC(C(=O)O)[C@@H](O)[C@H](O)[C@H]6O)C(C)(C)C5CC[C@]43C)[C@@H]2C1 (some centres not stated)	1.9	-1.3	-0.6	1.7	7.0%	6.2
2	COc1ccc(Br)cc1C(=O)NCc1cccnc1	6.7	0.4	-0.7	-16.2	-4.3%	0.0
3	O=C(Nc1ccc(F)cc1F)N1CCC(c2nc3ccccc3o2)CC1	-3.8	13.9	0.0	-1.1	-0.4%	0.5
4	O=C(OCC(=O)N1CCN(C(=O)c2ccco2)CC1)c1cc(-c2ccc(F)cc2)nc2ccccc12	-3.2	-10.2	-0.3	-5.6	-3.2%[38.3 µM]	0.2
5	Cc1ccc(/C(N)=N/OC(=O)c2cccc(F)c2)cc1	7.1	10.4	0.8	17.6	u	3.5
6	NC(=O)CCC(=O)N1CCCC(C(=O)c2ccc3c4c(cccc24)CC3)C1 (configuration not stated)	x	-5.6	0.5	0.1	-1.2%	-3.4
7	COC(=O)C1(C)NC(c2ccccc2C)C2C(=O)N(c3ccccc3)C(=O)C21 (configuration not stated)	0.0	1.9	-0.2	-3.6	-0.1%	-3.1
8	O=C(COC(=O)c1cnccn1)c1ccc2c(c1)CCCC2	11.8	0.2	-1.2	-15.6	-4.4%	-1.8
9	Cc1cc(-c2ccc(C)c(S(=O)(=O)NC(C)Cc3ccco3)c2)on1 (configuration not stated)	-11.2	-1.9	0.1	-1.4	3.1%	-1.7
10	CCn1ccc(C(=O)NCCCN2CCCC2=O)n1	8.0	6.2	0.2	-6.9	0.9%	-3.0
11	CCc1ccc(C(=O)COC(=O)C(Cc2ccccc2)NC(=O)c2ccc(Cl)cc2)cc1 (configuration not stated)	7.0	3.9	3.6	-17.0	3.0%	-3.2
12	Cc1cc2occ(CC(=O)N(CC(C)C)c3c(N)n(Cc4ccccc4)c(=O)[nH]c3=O)c2cc1C	1.9	7.9	1.4	-14.7	-1.1%	-4.0

cpd	SMILES	CtBP-E1A blk	Six1-Eya2 blk	TRPML1 ag	D2 potentiator	PINK1 modulator	D2 agonist
13	Cc1cc(F)ccc1S(=O)(=O)N1CCCOC1CNC(=O)C(=O)NC1CCCCC1 (configuration not stated)	2.9	3.2	0.4	-7.6	0.9%	-4.6
14	COCCN1C[C@@H](CO)O[C@@H](n2cnc3c(N(C)C(C)C)ncnc32)C1	2.0	0.1	-0.4	-3.0	5.3%	-4.3
15	CC(C)CC1NC(=O)N(CC(=O)N2CCN(S(=O)(=O)c3ccccc3)CC2)C1=O (configuration not stated)	6.6	2.7	0.0	-6.3	-1.2%	-3.3
16	COc1cc(/C=C/C(=O)OCC(=O)N2CCCc3ccccc32)ccc1OC(F)F	-15.3	-0.1	4.5	-3.5	-0.4%	-1.3
17	C=CCN(CC=C)S(=O)(=O)c1ccc(C(=O)Nc2nnc(CSC)o2)cc1	x	-6.1	0.4	-6.0	3.4%	-4.1
18	CCN(C(=O)CN1C(=O)NC2(CCc3ccccc32)C1=O)C1CCS(=O)(=O)C1 (configuration not stated)	x	10.3	-0.4	-0.5	1.7%	-4.4
19	c1ccc(Nc2nc(-c3cccnc3)cs2)nc1	-0.5	5.2	1.2	10.9	2.5%	-4.6
20	Cc1noc(C)c1COc1ccc(C(=O)OCC(=O)NCc2ccccc2Cl)cc1	-2.2	-6.4	2.7	-4.0	9.4%	-0.7
21	CCn1c(=S)ccc2ccc(OC)cc21	-1.2	-11.5	-0.9	-3.0	0.7%	-2.6
22	CSCCC(C(=O)OCC(=O)c1ccc(C)c(C)c1)N1C(=O)c2ccccc2C1=O (configuration not stated)	11.9	1.2	6.1	1.6	2.4%	-0.9
23	CN(C)S(=O)(=O)c1ccc(Oc2ccc(S(=O)(=O)N(C)C)cc2)cc1	6.3	-0.1	5.4	-2.7	0.7%	-0.2
24	CC(=O)Nc1ccc(C(=O)N/N=C/c2cccnc2)cc1	-17.1	-4.7	3.1	-4.1	-2.3%	-0.6

Given with one line to a screen: part of the list above
[16] COc1cc(/C=C/C(=O)OCC(=O)N2CCCc3ccccc32)ccc1OC(F)F
[17] C=CCN(CC=C)S(=O)(=O)c1ccc(C(=O)Nc2nnc(CSC)o2)cc1

assay / compound,16,17
CtBP-E1A blk,-15.3,x
Six1-Eya2 blk,-0.1,-6.1
TRPML1 ag,4.5,0.4
D2 potentiator,-3.5,-6.0
PINK1 modulator,-0.4%,3.4%
D2 agonist,-1.3,-4.1

Other results follow:
cpd	SMILES	CtBP-E1A blk	Six1-Eya2 blk	TRPML1 ag	D2 potentiator	PINK1 modulator	D2 agonist
25	COC(=O)c1cc2occc2n1CC(=O)Nc1cc(OC)cc(OC)c1	11.9	2.2	-0.2	-13.3	x	3.0
26	O=C1c2ccccc2-c2onc3ccc(N4CCCC4)c1c23	u	-67.6*	u	-1.1	-1.8%	3.8
27	Cc1ccc(S(=O)(=O)N(C)CC(=O)Nc2ccncc2)cc1	1.2	0.5	-0.5	-5.6	-0.2%	0.1
28	CC(C)CN(C(=O)CSc1nncs1)c1c(N)n(CC(C)C)c(=O)[nH]c1=O	3.1	3.1	3.8	3.9	-0.7%	-0.9
29	Cc1cc(C)n(C(=O)CNc2ccc(C)c(C)c2)n1	-7.1	-5.6	1.2	-3.6	4.5%	-1.1
30	Cc1cn2c(nc(=O)c3cccnc32)s1	8.9	u	0.1	0.8	1.8%	-3.2
31	Cc1ccc(C(=O)Nc2ccc(N3CCN(C(=O)c4ccco4)CC3)cc2)cc1	2.9	-0.6	0.9	3.5	-0.7%	0.3
32	CC(NC(=O)CSc1nnc2n1CCCCC2)c1ccccc1Cl (configuration not stated)	11.6	2.0	-0.3	-2.5	-0.6%	-0.8
33	COc1ccc(Cl)cc1NC(=O)CSc1nc(Nc2ccccc2)nc(N2CCOCC2)n1	-5.3	0.8	1.4	4.3	1.3%	5.3
34	CN(Cc1cccs1)C(=O)c1cc(S(=O)(=O)N2CCOCC2)ccc1N1CCCC1	-2.0	3.8	5.3	-0.9	0.7%	3.4
35	CN(C)Cc1nc2ccccc2c(=O)n1Cc1nc(-c2cccc([N+](=O)[O-])c2)cs1	-1.3	-4.5	3.4	15.3	0.0%	1.8
36	CC(C)(C)Nc1nc(Cl)nc(N(C#N)CN2C(=O)c3ccccc3S2(=O)=O)n1	x	-7.7	1.9	-12.0	2.7%	-1.4

cpd	SMILES	CtBP-E1A blk	Six1-Eya2 blk	TRPML1 ag	D2 potentiator	PINK1 modulator	D2 agonist
37	CCOc1ccccc1NC(=O)Cc1coc2cc(C)ccc12	8.5	2.6	1.2	-4.0	0.7%	-4.4
38	CC(=C/c1ccc(C(C)C)cc1)/C=N/NC(=O)Cn1nnnc1N	-7.3	-7.7	0.1	0.5	1.4%	3.7
39	O=C1CN(c2ccccc2)C(=S)N1c1ccccc1	-2.8	10.3	0.3	-2.2	-1.3%	2.8
40	COc1ccc(OC)c(C(=O)NC(CC(N)=O)c2ccc(N3CCC(Cc4ccccc4)CC3)c([N+](=O)[O-])c2)c1 (configuration not stated)	-7.8	-4.0	-0.6	-11.4	0.1%	-1.8
41	COc1ccc(C2NC(=O)CCC2[N+](=O)[O-])cc1OC (configuration not stated)	10.4	-1.3	0.0	-3.0	-0.7%	-4.5
42	Nc1nc(C(c2ccccc2)c2ccccc2)cs1	-11.5	-5.0	0.7	-8.9	0.7%	-4.4
43	CCOc1ccc(-c2cn(S(=O)(=O)c3cccc4nsnc34)nc2N)cc1	u	u	2.2	-19.2	1.3%	-4.4
44	COc1ccc(C(C)(C)C)cc1NS(=O)(=O)c1cccc2cccnc12	4.6	-4.4	-0.9	-1.5	4.1%	-0.2
45	CN(C(=O)COC(=O)c1ccc2c(c1)OCO2)c1c(N)n(Cc2ccccc2)c(=O)[nH]c1=O	-22.5	5.9	-1.1	4.7	1.7%	-3.1
46	COc1ccc(CN2CCN(Cc3c[nH]c4ccccc34)CC2CCO)cc1C (configuration not stated)	-20.2	-7.4	0.4	-5.1	2.4%	-4.1
47	CC(=O)OC(C#CCN1CCOCC1)c1ccccc1 (configuration not stated)	4.8	-2.6	-0.1	-12.3	x	-2.1
48	Cc1cc(S(=O)(=O)NC(=O)[C@H]2O[C@@H](n3cnc4c(N)ncnc43)[C@H](O)[C@@H]2O)ccc1Br	-3.9	-0.3	-0.4	2.3	2.1%	-3.7

cpd	SMILES	CtBP-E1A blk	Six1-Eya2 blk	TRPML1 ag	D2 potentiator	PINK1 modulator	D2 agonist
49	CCN1C(=O)CC(N2CCOCC2)C1=O (configuration not stated)	4.5	2.5	-1.0	-3.8	-0.1%	0.6
50	CN(CC(=O)Nc1cccc(F)c1)C(=O)c1ccc(C(=O)c2ccccc2)cc1	-1.8	1.7	0.3	-0.1	3.6%	-1.4
51	NNC(=O)c1ccc(COc2ccc([N+](=O)[O-])cc2)o1	x	-0.4	0.8	0.6	0.3%	-6.0
52	Oc1c(Br)cc2oc3c(c2c1CNCc1ccccc1)CCCC3	-2.0	-2.2	-0.2	-21.8	1.1%	-4.7
53	C/C(=N\NC(=O)CNC(=O)c1ccc2c(c1)OCO2)c1ccco1	x	0.7	0.2	-8.0	-0.4%	-1.7
54	CCN(CC)C(=O)CC(c1cc(OC)c(OC)c(OC)c1)c1c(OC)cc(OC)c2c(-c3ccccc3)cc(=O)oc12 (configuration not stated)	0.0	-13.3	1.4&-1.0	-19.1	3.1%	-1.4
55	Cc1c(CN2CCc3c([nH]c4ccccc34)C2CC(C)C)cnn1C (configuration not stated)	-5.8	-2.5	0.1	-12.9	-0.7%	-2.8
56	NC(c1csc(Nc2ccccn2)n1)c1ccccc1Cl (configuration not stated)	-90.5*	-78.6*	-0.4	-5.7	1.3%	-4.4
57	CCN(CC1CCCN(CCc2cccc(F)c2)C1)C(=O)c1ccc(CSC)o1 (configuration not stated)	3.3	-16.4	1.4	-37.2	2.6%	-5.3
58	CCN(CC)S(=O)(=O)c1ccc(N2CCOCC2)c(C(=O)O)c1	-0.1	4.1	0.7	-13.6	-0.3%	-1.6
59	O=C(O)c1ccc(S(=O)(=O)NCC2CCCCC2)cc1	3.9	9.7	-0.2	-0.8	-0.9%	2.3
